Env fusion inh = blocks HIV Env-driven cell-cell fusion. AID 651610. actives 1.1% (n = 360,000). HeLa-JRFL Env/CEM21 cell fusion, luciferase. inhibition, % at 12.3 µM;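 active means mean replicate inhibition score of at least 50 and every replicate individually at or above 50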;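 further: 0% = plate neutral controls and 100% = maraviroc near 300 nM; one replicate is shown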
Numbers without * were called inactive; [ ] = dose if it differs, or a comment.

no.	molecule	Env fusion inh
1	CN(C)CC(=O)Nc1ccc2c(c1)[C@@H]1C[C@@H](CC(=O)NCc3cc(F)ccc3F)O[C@H](CO)[C@@H]1O2	2.9[16.7 µM]
2	CC(C)NC(=O)Nc1ccc2c(c1)CC(=O)N([C@H](C)CO)C[C@@H](C)[C@@H](CN(C)S(=O)(=O)c1ccccc1)O2	-0.9[16.7 µM]
3	COCc1cc(N2CCN(C(=O)OC(C)(C)C)C[C@H]2C)ccc1Br	-8.8
4	COc1ccc(S(=O)(=O)Nc2ccc3c(c2)[C@H]2C[C@H](CC(=O)N(C)C)O[C@H](CO)[C@H]2O3)cc1	-44.6[16.7 µM]
5	CO[C@@H]1CN(C)C(=O)c2ccc(NS(=O)(=O)c3cn(C)cn3)cc2OC[C@@H](C)NC[C@@H]1C	9.9[16.7 µM]
6	Cc1noc(C)c1C(=O)N(C)C[C@H]1OCc2ccccc2-c2ccccc2C(=O)N([C@H](C)CO)C[C@H]1C	-1.3[16.7 µM]
7	CO[C@H]1CN(C)C(=O)c2cc(NC(=O)C3CCOCC3)ccc2OC[C@H](C)N(Cc2cccnc2)C[C@H]1C	1.2[16.7 µM]
8	Cc1cccc(NC(=O)Nc2ccc3c(c2)C(=O)N(C)[C@H]2CC[C@@H](CC(=O)NCc4ccccc4Cl)O[C@H]2CO3)c1	20.3[16.7 µM]
9	COc1ccccc1S(=O)(=O)N[C@@H]1CC[C@@H](CCn2cc(C3CCCCC3)nn2)O[C@H]1CO	-5.2[16.7 µM]
10	CCO[C@H]1OC(C(=O)N2CCCC2)=C[C@@H](c2ccc3c(c2)OCO3)[C@@H]1CCCO	-1.8[16.7 µM]
11	CCCN(C)C[C@H]1Oc2cc(C#CCC3CCCC3)ccc2S(=O)(=O)N([C@H](C)CO)C[C@H]1C	-15.3[16.7 µM]
12	CC(C)NC(=O)Nc1ccc2c(c1)C(=O)N([C@@H](C)CO)C[C@H](C)[C@H](CN(C)C(=O)Nc1ccccc1)OCCCC[C@H](C)O2	-39.8[16.7 µM]
13	O=C(C[C@H]1CC[C@@H](NC(=O)C2CCC2)[C@@H](CO)O1)NCC1CC1	8.7[16.7 µM]
14	COc1cccc(CNC(=O)[C@H]2CCCN2C(=O)[C@H]2CCCN2C(=O)c2ccc(F)cc2)c1	-9.6
15	Cc1ccc(S(=O)(=O)N[C@H]2CC[C@@H](CCNC(=O)c3ccccc3F)O[C@H]2CO)cc1	48.0[16.7 µM]
16	O=C(C[C@@H]1C[C@H]2c3cc(NC(=O)Nc4ccccc4)ccc3O[C@H]2[C@H](CO)O1)NCc1ccccc1	6.7[16.7 µM]
17	COC(=O)N1Cc2ccnnc2CC1c1ccccc1-c1ccccc1 (stereo unspecified)	4.8
18	C[C@@H](NC(=O)C[C@H]1CC[C@@H]2[C@H](COC[C@@H](O)CN2C(=O)Nc2cccc(Cl)c2)O1)c1ccccc1	-44.0[16.7 µM]
19	C[C@@H]1CN([C@@H](C)CO)C(=O)c2ccccc2-c2ccccc2CO[C@@H]1CN(C)S(=O)(=O)CC(F)(F)F	4.8[16.7 µM]
20	Nc1nc2c(ncn2[C@@H]2O[C@H](C(=O)N[C@H](Cc3ccccc3)C(=O)NCc3ccccc3)[C@@H](O)[C@H]2O)c(=O)[nH]1	-11.3
21	CO[C@@H]1CN(C)C(=O)c2cc(NS(=O)(=O)c3cccc(F)c3)ccc2OC[C@@H](C)NC[C@@H]1C	14.4[16.7 µM]
22	CCCn1c(C)c(CC(=O)Nc2ccc(N(C)c3ccccn3)cc2)c2ccccc21	7.3
23	CC(C)NC(=O)Nc1ccc2c(c1)C(=O)N([C@@H](C)CO)C[C@H](C)[C@H](CN(C)Cc1ccncc1)OCCCC[C@@H](C)O2	-12.1[16.7 µM]
24	Cc1ccc(S(=O)(=O)Nc2ccc3c(c2)C(=O)N([C@@H](C)CO)C[C@@H](C)[C@@H](CN(C)C(=O)Nc2ccc4c(c2)OCO4)O3)cc1	9.0[16.7 µM]
25	CO[C@@H]1CN(C)C(=O)c2ccc(NC(=O)C3CCOCC3)cc2OC[C@H](C)N(C(=O)c2ccccc2)C[C@@H]1C	-15.7[16.7 µM]
26	O=C(C[C@H]1C[C@H]2c3cc(NC(=O)C4CCC4)ccc3O[C@H]2[C@H](CO)O1)NC1CCCC1	-8.8[16.7 µM]
27	CN1C(=O)c2cc(NC(=O)NC3CCCC3)ccc2OC[C@H]2O[C@H](CC(=O)NC3CCC3)CC[C@H]21	5.9[16.7 µM]
28	COc1ccc(NC(=O)N(C)C[C@H]2Oc3ncc(C#CCN(C)C)cc3C(=O)N([C@H](C)CO)C[C@@H]2C)cc1	-2.9[16.7 µM]
29	COCCNC(=O)C[C@@H]1C[C@H]2c3cc(NC(=O)CN(C)C)ccc3O[C@H]2[C@@H](CO)O1	-24.6[16.7 µM]
30	CCCNC(=O)C[C@@H]1CC[C@@H]2[C@@H](COc3ccc(NC(=O)c4ccc5c(c4)OCO5)cc3C(=O)N2C)O1	3.6[16.7 µM]

Filtered by structure, the compounds so far containing a Cl atom (2)
no.	molecule	Env fusion inh
8	Cc1cccc(NC(=O)Nc2ccc3c(c2)C(=O)N(C)[C@H]2CC[C@@H](CC(=O)NCc4ccccc4Cl)O[C@H]2CO3)c1	20.3[16.7 µM]
18	C[C@@H](NC(=O)C[C@H]1CC[C@@H]2[C@H](COC[C@@H](O)CN2C(=O)Nc2cccc(Cl)c2)O1)c1ccccc1	-44.0[16.7 µM]

Following part:
no.	molecule	Env fusion inh
31	COC(=O)C[C@H]1CC[C@H]2[C@@H](COC[C@@H](O)CN2C(=O)Nc2ccccc2OC)O1	10.3[16.7 µM]
32	O=C1CC(O)C(Cc2ccccc2)N1 (stereo unspecified)	-8.4
33	CCCC(=O)Nc1ccc2c(c1)OC[C@H](C)N(C(=O)CN(C)C)C[C@@H](C)[C@@H](OC)CN(C)C2=O	-9.7[16.7 µM]
34	CN1C(=O)c2cc(NC(=O)c3cccc(C(F)(F)F)c3)ccc2OC[C@@H]2O[C@@H](CC(=O)O)CC[C@@H]21	-7.6[16.7 µM]
35	COC(=O)[C@]12C[C@H](CC(=O)N3CCSCC3)C(=O)N(CCC3=CCCCC3)C1=C[C@H](COCc1ccccc1)O[C@@H]2C	2.5
36	COc1ccccc1S(=O)(=O)N[C@H]1CC[C@@H](CC(=O)NCc2cccc(F)c2)O[C@H]1CO	14.0[16.7 µM]
37	CN1C(=O)c2cc(NC(=O)Cc3cccs3)ccc2OC[C@@H]2O[C@H](CC(=O)N[C@H]3CCN(Cc4ccccc4)C3)CC[C@H]21	11.5[16.7 µM]
38	CC1=N/C(=C\c2ccc([N+](=O)[O-])cc2)C(=O)N1c1ccc(C)c(Cl)c1	10.8
39	O=C(C[C@@H]1C[C@H]2c3cc(NC(=O)C4CCOCC4)ccc3O[C@H]2[C@H](CO)O1)NCc1cc(F)ccc1F	15.8[16.7 µM]
40	CO[C@@H]1CN(C)C(=O)c2ccc(NC(C)=O)cc2OC[C@@H](C)N(C(=O)c2ccccc2F)C[C@H]1C	-2.0[16.7 µM]
41	CS(=O)(=O)Nc1ccc2c(c1)[C@@H]1C[C@H](CC(=O)NCCc3ccccc3)O[C@@H](CO)[C@@H]1O2	-9.0[16.7 µM]
42	O=C(O)C[C@H]1C=C[C@H](NC(=O)c2ccccc2F)[C@@H](CO)O1	10.3[16.7 µM]
43	COC(=O)C[C@@H]1C[C@H]2c3cc(NC(=O)NC4CCCC4)ccc3O[C@H]2[C@H](CO)O1	7.3[16.7 µM]
44	C[C@H](CO)N1C[C@H](C)[C@@H](CN(C)S(=O)(=O)c2ccccc2)Oc2ccc(NC(=O)Nc3ccc4c(c3)OCO4)cc2CC1=O	-3.6[16.7 µM]
45	COc1ccc(CN2CC3(C2)CN(C(=O)CN(C)C)[C@@H](CO)c2[nH]c4cc(OC)ccc4c23)cc1	-24.1[16.7 µM]
46	CN(C)CC(=O)Nc1ccc2c(c1)[C@H]1C[C@H](CC(=O)N3CCCCC3)O[C@H](CO)[C@H]1O2	8.3[16.7 µM]
47	Cc1cccc(C)c1NC(=O)C(CCc1ccccc1)N1CCN(CCN(C)C)CC1 (stereo unspecified)	4.9
48	CNC[C@@H]1OCCCC[C@@H](C)Oc2ccc(NC(=O)CCC(F)(F)F)cc2C(=O)N([C@H](C)CO)C[C@H]1C	1.7[16.7 µM]
49	O=C(/C=C(\Nc1ccccc1)c1ccccc1)c1ccccc1	-0.5
50	COC(=O)N1Cc2ccnnc2CC1c1ccccc1Br (stereo unspecified)	15.0
51	C[C@@H]1CN([C@H](C)CO)C(=O)Cc2cc(NC(=O)Cc3cn(C)c4ccccc34)ccc2O[C@@H]1CN(C)C(=O)Nc1ccc(F)cc1	-2.6[16.7 µM]
52	C[C@H](CO)N1C[C@H](C)[C@@H](CN(C)Cc2ccccc2)OCc2cn(nn2)CCCC1=O	8.7[16.7 µM]
53	Cc1cccc(S(=O)(=O)N2C[C@@H](O)COC[C@@H]3O[C@@H](CC(=O)Nc4ccc(-c5ccccc5)cc4)CC[C@H]32)c1	13.9[16.7 µM]
54	C[C@@H]1CN([C@H](C)CO)S(=O)(=O)c2ccc(-c3ccc(C(=O)N(C)C)cc3)cc2O[C@@H]1CN(C)C(=O)C1CC1	-8.7[16.7 µM]
55	CC(C)NC(=O)Nc1ccc2c(c1)CC(=O)N([C@H](C)CO)C[C@@H](C)[C@H](CN(C)Cc1ccc(C(=O)Nc3ccccc3N)cc1)O2	-5.7[16.7 µM]
56	COC(=O)C[C@H]1CC[C@@H]2[C@H](COC[C@@H](O)CN2S(=O)(=O)c2ccccc2OC)O1	-6.8[16.7 µM]
57	O=C1N[C@@H](c2ccccc2)COCc2cn(nn2)CC[C@@H]1Cc1ccccc1	7.3[16.7 µM]
58	C[C@@H](NC(=O)C[C@H]1C[C@@H]2c3cc(NS(=O)(=O)c4ccc(F)cc4)ccc3O[C@@H]2[C@H](CO)O1)c1ccccc1	85.9*[16.7 µM]
59	CNC[C@@H]1Oc2ccc(NS(=O)(=O)c3ccccc3)cc2CC(=O)N([C@H](C)CO)C[C@@H]1C	1.6[16.7 µM]
60	O=C(C[C@H]1C[C@H]2c3cc(NC(=O)Nc4ccccc4)ccc3O[C@H]2[C@H](CO)O1)NCCN1CCCCC1	-5.4[16.7 µM]

New compounds follow.
no.	molecule	Env fusion inh
61	COc1ccccc1NC(=O)N1C[C@H](O)COC[C@H]2O[C@@H](CC(=O)NCc3ccccc3)CC[C@@H]21	11.4[16.7 µM]
62	COc1ccccc1C(=O)Nc1ccc2c(c1)C(=O)N(C)[C@H]1CC[C@@H](CC(=O)NCCc3ccncc3)O[C@@H]1CO2	12.9[16.7 µM]
63	COc1ccc(C(C#N)=Cc2cc(OC)c(OC)c(OC)c2)cc1	-34.4
64	C[C@@H]1CN([C@@H](C)CO)C(=O)c2cc(NC(=O)CCN3CCOCC3)ccc2O[C@H]1CN(C)Cc1ccc(-c2ccccc2)cc1	5.7[16.7 µM]
65	COc1ccc(NC(=O)Nc2ccc3c(c2)CC(=O)N([C@@H](C)CO)C[C@@H](C)[C@@H](CN(C)S(=O)(=O)c2ccc(Cl)cc2)O3)cc1	2.6[16.7 µM]
66	COc1cccc(NC(=O)N(C)C[C@@H]2OCc3ccccc3-c3c(n(C)c4ccccc34)C(=O)N([C@@H](C)CO)C[C@@H]2C)c1	57.4*[16.7 µM]
67	CO[C@H]1CN(C)C(=O)c2cc(NC(=O)C3CCCCC3)ccc2OC[C@H](C)N(Cc2nccs2)C[C@H]1C	-3.8[16.7 µM]
68	CCS(=O)(=O)Nc1ccc2c(c1)C(=O)N(C)C[C@H](OC)[C@@H](C)CN(CCC(F)(F)F)[C@@H](C)CO2	44.9[16.7 µM]
69	COc1ccc(S(=O)(=O)N(C)C[C@H]2Oc3ccc(NS(=O)(=O)c4cn(C)cn4)cc3C(=O)N([C@H](C)CO)C[C@H]2C)cc1	2.1[16.7 µM]
70	Cn1cnc(S(=O)(=O)N2CC[C@@H]3[C@@H](CO)Nc4ccc(C#Cc5ccc(F)cc5)cc4[C@@H]32)c1	-6.4[16.7 µM]
71	COc1ccc2c3c([nH]c2c1)[C@H](CO)N(C(=O)Nc1ccc(F)cc1)CC31CCN(CC2CC2)CC1	20.5[16.7 µM]
72	COc1ccc(NC(=O)Nc2ccc3c(c2)[C@H]2C[C@@H](CC(=O)N4CCN(C)CC4)O[C@@H](CO)[C@H]2O3)cc1	-6.2[16.7 µM]
73	C[C@@H]1CN([C@H](C)CO)C(=O)c2ccccc2-c2ccccc2CO[C@@H]1CN(C)C(=O)Nc1ccnc(N2CCOCC2)c1	21.1[16.7 µM]
74	COc1ccc2c3c([nH]c2c1)[C@H](CO)N(C(=O)CN1CCOCC1)CC31CCN(C(=O)NC(C)C)CC1	-6.4[16.7 µM]
75	C[C@@H]1CN([C@@H](C)CO)C(=O)c2cc(NC(=O)C3CC3)ccc2O[C@H]1CN(C)Cc1ccc(C(=O)O)cc1	2.1[16.7 µM]
76	CO[C@H]1CN(C)C(=O)c2cccc(C#N)c2OC[C@H]2O[C@@H](CC[C@H]2OC)CCN(C)C(=O)[C@H]1C	-11.0[16.7 µM]
77	C[C@@H]1CN([C@@H](C)CO)C(=O)c2cccc(NS(C)(=O)=O)c2O[C@@H]1CN(C)Cc1ccc(Cl)c(Cl)c1	-0.8[16.7 µM]
78	C[C@H]1CN([C@@H](C)CO)C(=O)c2cc(C#CCc3ccccc3)cnc2O[C@@H]1CN(C)Cc1ccc(C(=O)O)cc1	-23.6[16.7 µM]
79	C[C@@H]1CN([C@@H](C)CO)C(=O)c2c(c3ccccc3n2C)-c2ccccc2CO[C@H]1CN(C)C(=O)NC1CCCCC1	-5.3[16.7 µM]
80	CO[C@@H]1CC[C@@H]2CCOc3ccc(C#N)cc3C(=O)N(C)C[C@@H](c3ccccc3)CC(=O)N(C)C[C@@H]1O2	-17.4[16.7 µM]

Fetched one by one from above, 2 records:
no.	molecule	Env fusion inh
68	CCS(=O)(=O)Nc1ccc2c(c1)C(=O)N(C)C[C@H](OC)[C@@H](C)CN(CCC(F)(F)F)[C@@H](C)CO2	44.9[16.7 µM]
73	C[C@@H]1CN([C@H](C)CO)C(=O)c2ccccc2-c2ccccc2CO[C@@H]1CN(C)C(=O)Nc1ccnc(N2CCOCC2)c1	21.1[16.7 µM]

Screening results as filed in PubChem BioAssay.

Only part of the results is shown; rates above refer to the full screens.
